Screens deposited in PubChem BioAssay by ICCB-Longwood Screening Facility, Harvard Medical School.
S aureus helic: blocks Staphylococcus aureus DNA helicase | purified S. aureus helicase, fluorescence unwinding assay; about half of the hits fall short of the stated cut | inhibition, %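 (tested at about 80 µM)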 | 120,000 compounds, 0.05% hits | AID 485395;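 active = both duplicates at 50% or more, or one of them with a favoured structure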;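 also: 0% = mean of negative control wells and 100% = mean of positive control wells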
MgrA DNA FP: modulators of Staphylococcus aureus MgrA DNA binding; fluorescence polarization; inhibition, %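 (about 10 µg/mL by stock and volumes)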; 84,000 compounds, 0.13% hits; AID 602314;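 active = above 50% in either of two replicates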;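 also: 0% = protein plus DNA without compound and 100% = DNA alone without protein; higher means less MgrA bound to DNA so lower polarization; one replicate is shown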
An asterisk follows results filed as active; · = not tested or not shown.

The line under a structure holds: S aureus helic	MgrA DNA FP
CC(C)c1cc(NC(=O)COC(=O)c2cc3c(s2)CCCCC3)on1
  5	·
COc1ccc(/C=C2/N=C(N3CCOCC3)SC2=O)cc1OC
  11	-2.5
Cn1c(=O)c2c(nc(CN3CCc4ccccc4C3)n2CCCc2ccccc2)n(C)c1=O
  -1	·
CCC1SC(CC)C(=O)N(CC(=O)NCc2ccccc2)C1=O (stereo not drawn)
  6	·
O=C(c1ccc(Cl)c(Cl)c1)n1ccc(C2CC2)n1
  ·	-1.2
CCn1c(O)c(C=Nc2cc(S(=O)(=O)CC)ccc2O)c(=O)n(CC)c1=S
  -149	·
C/C(=N\O)C12CC3CC(CC(C3)C1)C2
  ·	0.9
CCOc1cc(C(=O)NC(C)(C)CC)cc(OCC)c1OCC
  16	3.0
COc1cc(OC)c(OC)cc1CO
  20	·
CC(C)CN(CC(C)C)C(=O)CSc1nnc(C(C)N(C)C)n1Cc1ccccc1 (stereo not drawn)
  0	·
O=C(Cn1cnc2ccccc2c1=O)Nc1cc(C(F)(F)F)ccc1N1CCOCC1
  9	·
O=[N+]([O-])c1ccccc1-c1cnco1
  ·	1.0
Cc1cc(C)c(C#N)c(Sc2ccccn2)n1
  ·	-0.9
CC(=O)n1c2ccccc2c2nc(C)sc21
  9	1.6
CCN(CC)C/C(C)=N/Nc1ccccc1
  -12	·

Reprinted from the part before: 5 compounds, then new ones.
The line under a structure holds: S aureus helic	MgrA DNA FP
O=C(Cn1cnc2ccccc2c1=O)Nc1cc(C(F)(F)F)ccc1N1CCOCC1
  9	·
O=[N+]([O-])c1ccccc1-c1cnco1
  ·	1.0
Cc1cc(C)c(C#N)c(Sc2ccccn2)n1
  ·	-0.9
CC(=O)n1c2ccccc2c2nc(C)sc21
  9	1.6
CCN(CC)C/C(C)=N/Nc1ccccc1
  -12	·
CCOC(=O)c1ccc(NC(=O)Cn2cc3c(n2)CCCC3)cc1
  5	·
CCOC(=O)C1CCCN(C(=O)c2ccc(Cl)cc2)C1 (stereo not drawn)
  9	1.0
CCc1onc(C)c1C(=O)Nc1ccc(N2CCOCC2)cc1
  -8	·
COc1ccc(Nc2nc(N)nc(CC(=O)CSc3ccc(C)cc3)n2)cc1
  6	·
CC1=CC(C)C2(COC(=O)Nc3ccccc3)COC(C)C1C2C (stereo not drawn)
  2	4.3
Cc1nc(-c2cccc(Cl)c2)n[nH]1
  ·	-2.1
CC[n+]1c(C)sc2ccccc21
  16	1.3
Cn1c(=O)c2sccc2n2c(CCC(=O)N3CCN(c4ncccn4)CC3)nnc12
  -29	·
CC1CCCC(NC(=O)COC(=O)c2cncc(Br)c2)C1C (stereo not drawn)
  -13	·
CN(C(=O)c1ccco1)c1ccccc1
  -10	7.2
CSc1ncc(Cl)c(C(=O)C(C#N)c2nc3ccccc3c(=O)[nH]2)n1 (stereo not drawn)
  3	·
NC(=S)c1ccc(-c2csnn2)cc1
  ·	-0.9
O=C(NC1=NC2CCCCC2N1)c1ccccc1 (stereo not drawn)
  -2	4.0
O=C(c1cccc(Oc2ccccc2)c1)N1CCN(c2ccccn2)CC1
  -18	0.1
CS(=O)(=O)N(C(=O)NC(=O)NC12CC3CC(CC(C3)C1)C2)C1CCCCC1
  -1	·
COc1ccccc1S(=O)(=O)Cc1ccc(C(=O)NCc2ccccc2)o1
  12	·
Cc1cc(-c2csc(NC(=O)/C=C/c3ccco3)n2)c(C)n1CC1CCCO1 (stereo not drawn)
  3	·
CCOC(=O)/C(C#N)=N/Nc1cc(-c2ccccc2)[nH]n1
  ·	-3.2
Cc1occc1-c1nnc(SCCCC(=O)c2ccc(Br)cc2)n1C
  9	·
O=C(NCCS(=O)(=O)c1ccc(C(F)(F)F)cn1)c1ccc(Cl)cc1
  ·	-1.2
CCOC(=O)C1=C(C)NC(C(=O)OCC)CS1 (stereo not drawn)
  ·	5.6
Oc1cccc2ccc[n+](CC(O)Cn3c4ccccc4c4ccccc43)c12 (stereo not drawn)
  6	3.2
CCn1c(C(=O)O)c(CC(=O)Nc2cc(OC)ccc2OC)c2ccccc21
  -2	·
CCCC1=NN2CCS(=O)(=O)N=C2S1
  9	·
C=CCOc1cc(NC(C)=O)c(C(C)=O)cc1C(C)=O
  ·	0.3
COc1cc2nc(C)n(C(=S)S)c2cc1OC
  -14	·
CN(Cc1ccc(Cl)c(Cl)c1)Cn1nnc2ccccc21
  -7	·
CC1Cc2ccccc2N1C(=O)Cn1cnc2ccccc2c1=O (stereo not drawn)
  2	·
O=C(O)CC1(CC(=O)NCC2COc3ccccc3O2)CCCCC1 (stereo not drawn)
  ·	-1.8
CC(C)c1ccc(OCC(=O)Nc2ccc(N3CCN(C)CC3)cc2)cc1
  11	-0.8
CCc1ccc2c(c1)SC1=NS(=O)(=O)CCN12
  -14	·
O=S(=O)(c1cc(Cl)sc1Cl)N1CCCC1
  ·	-0.1
O=S(=O)(Nc1ccc(F)cc1)c1cc(Cl)c(Cl)cc1Cl
  ·	-1.1
O=C(CC12CC3CC(CC(C3)C1)C2)NCC(=O)N1CCCC1
  5	-0.8
O=C(NC1CC1)c1sc2cc(F)ccc2c1Cl
  -8	-2.6
CCOC(=O)c1sc2nc(N3CCOCC3)c3c(c2c1N)CC(C)(C)N(C)C3
  ·	-2.0
Cc1ccc2oc(=O)c3cc(C(=O)N(CC(C)C)CC(C)C)sc3c2c1
  14	-0.8
O=C(COc1ccccc1)NN1C(=O)CSC1=S
  3	·
C[n+]1ccccc1C(O)Cc1ccncc1 (stereo not drawn)
  0	-2.5
CCC(=O)Nc1nonc1-c1nc2ccccc2n1C
  4	-0.5
COc1ccc(-c2ccc(/C=c3\sc4nc5ccccc5n4c3=O)o2)c([N+](=O)[O-])c1
  ·	-0.3
CCOc1ccc(NC(=O)CCNc2ccccc2OC)cc1
  -10	·
CCn1c(-c2cc(OC)c(OC)c(OC)c2)nc2ccccc21
  -1	1.1
C=CCSc1nc(C)cc(C)c1C(=O)Nc1ccccc1
  -21	·
CCOC(=O)c1c(NC(=O)Cc2ccc(Cl)cc2)sc(C(=O)Nc2cc(C(F)(F)F)ccc2Cl)c1C
  ·	0.2
COc1cc2c(cc1OC)C(c1cccs1)N(C(=O)/C=C/c1ccco1)CC2 (stereo not drawn)
  -4	·
COC(=O)C1Cc2cc(OC)c(OC)cc2C(Cc2ccc(OC)c(OC)c2)=N1 (stereo not drawn)
  9	·
N#CC1=C(S)NC(=O)C(C#N)C12CCCCC2 (stereo not drawn)
  15	33
O=C(Cn1cc2c(n1)CCCCC2)NCc1ccc(F)cc1
  -23	·
CC1(C)C2CCC1(CS(=O)(=O)NC(CC(=O)O)c1cccc(Br)c1)C(=O)C2 (stereo not drawn)
  14	·
Cc1ccc(CNC(=O)C2=NN(c3ccccc3)C(=O)CC2)cc1
  39	·
CN(Cc1ccccc1)C(=O)c1cc(-c2cccc(O)c2)on1
  6	·
CN(C)C(=O)c1csc(C2COc3ccccc3O2)n1 (stereo not drawn)
  ·	-3.8
CC(=O)N1c2ccccc2C(=O)C1Sc1nc(C)cc(C)n1 (stereo not drawn)
  -11	·
CSc1ccccc1NC(=O)C1COc2ccccc2O1 (stereo not drawn)
  15	1.0
Cc1ccc(C(=O)CSc2nc(C)cc(C)c2C#N)cc1
  3	-2.4
N/C(=N\O)c1c(O)c2ccccc2[nH]c1=O
  7	·
O=C(O)C1CCCN1S(=O)(=O)c1ccc2ccccc2c1 (stereo not drawn)
  2	3.5
c1ccc(OCCSC2=NCCN2)cc1
  2	5.1
CS(=O)(=O)N1CCc2cc(C(=O)N3CCCC3)ccc21
  24	·

Other compounds follow.
The line under a structure holds: S aureus helic	MgrA DNA FP
COc1ccccc1/C(O)=C/C(=O)C(=O)Nc1sc2c(c1C#N)CCC2
  7	4.9
CCOC(=O)c1cccc(C(=O)OCC)n1
  -24	·
CCN(CC)c1ccc(CNc2ccc(Br)cn2)cc1
  7	·
CCOC(=O)c1c(NC(C)=O)sc2c1CCCC2
  ·	-3.2
CS(=O)(=O)CS(=O)(=O)Nc1cccc(OC(F)(F)F)c1
  ·	-0.5
COc1cccc(CNC(=O)CN(C)S(=O)(=O)c2ccc3c(c2)CC(C)N3C(C)=O)c1 (stereo not drawn)
  -25	·
COc1ccc(-c2noc(CC(=O)NCCN(C)C)n2)cc1
  12	·
O=S(=O)(NCCO)c1cccc2cccnc12
  9	1.2
Nc1nc(CSCc2ccco2)nc(N2CCCCC2)n1
  9	5.8
Cc1ccc2nc(SC(C)C(=O)NCc3ccco3)[nH]c2c1 (stereo not drawn)
  -5	·
Cc1ccc(C2CCN(C(=S)NCc3ccccc3)C2)cc1 (stereo not drawn)
  18	-1.4
O=C(NNC(=S)Nc1ccc(F)cc1)c1ccccc1Cl
  ·	8.4
O=C1Nc2ccccc2N(O)N1c1ccccc1Cl
  8	-0.1
O=C(O)CCNC(=O)C(c1ccccc1)c1ccccc1
  -1	-0.8
CC(C)C(NC(=O)C1CCCCC1)C(=O)Nc1ccccn1 (stereo not drawn)
  -7	·

One compound at a time, as listed above. Values in the order: S aureus helic, MgrA DNA FP
Shown for CCN(CC)c1ccc(CNc2ccc(Br)cn2)cc1 = 7, ·
Shown for O=C(O)CCNC(=O)C(c1ccccc1)c1ccccc1 = -1, -0.8

Remaining list, next part.
The line under a structure holds: S aureus helic	MgrA DNA FP
CC(C)n1ncc2c(C(=O)N(C)Cc3ccco3)cc(-c3ccccc3)nc21
  16	·
NC(=O)CC1C(=O)N(c2ccc(Cl)cc2)C(=S)N1Cc1cccnc1 (stereo not drawn)
  8	-0.2
Nc1ccc(S(=O)(=O)N2CCCCCC2)cc1
  7	·
CCOC(=O)C(C#N)C1C(=O)Nc2ccccc21 (stereo not drawn)
  -14	·
O=C(Nc1ccc(-c2nc3ccccc3c(=O)o2)cc1)C1CC1
  11	0.7
CC(=O)NC1(c2cccc(F)c2)CCN(C(=O)NCc2ccccc2)CC1
  -6	4.2
CC(=O)Nc1cc(Cl)c(C)cc1N
  ·	-2.2
O=C(Nc1cccc(C(F)(F)F)c1)c1cccc(S(=O)(=O)N2CCCC2)c1
  12	-0.9
N#C/C(=C\Nc1ccc(OC(F)(F)F)cc1)c1nc2ccccc2[nH]1
  ·	-0.6
O=C(Nc1ccccc1-c1nc2ccccc2s1)C1CCCN1S(=O)(=O)c1cccs1 (stereo not drawn)
  11	·
CC(C)(C)OC(=O)N1CCC(CNS(=O)(=O)c2ccc3c(c2)OCCO3)CC1
  ·	-1.4
Cc1ccc(N)c(C(O)c2ccccc2)c1 (stereo not drawn)
  -13	·
CCN(CC)C(=O)C(c1ccccc1)n1nnc(-c2ccc(Br)cc2)n1 (stereo not drawn)
  -4	·
N#CC(C#N)(Cc1c(Cl)cccc1Cl)Cc1c(Cl)cccc1Cl
  ·	1.4
Fc1c(F)c(F)c(Nc2ccccc2)c(F)c1F
  -16	·
CCOc1ccc2oc(=O)cc(Cn3c(=O)c(OCC)nc4cccnc43)c2c1
  2	·
Cc1cc(CN2CCS(=O)(=O)CC2)no1
  ·	1.3
O=C(O)CN1C(=O)CCC1=O
  -2	-0.1
N#CC(C#N)=Cc1cn(CCOc2ccc3c(c2)OCO3)c2ccccc12
  -1	2.6
O=C(Cn1cc(S(=O)(=O)N2CCCC2)ccc1=O)Nc1ccc(N2CCCCC2)cc1
  -4	·
CCN(CC)Cc1c(C(=O)N/N=C(\C)c2ccc(O)cc2)nnn1-c1nonc1N
  -9	·
CCOC(=O)c1c(NCC(=O)N2CCOCC2)sc2c1CC(C)(C)NC2(C)C
  -7	·
c1ccc(-n2cnnc2)cc1
  -14	-2.1
CCSc1nnc(C2CCN(Cc3ccncc3)CC2)n1C
  -4	0.3
C=CCC1CC(=O)N(c2ccc(C)c(F)c2)C1=O (stereo not drawn)
  ·	-1.6
N#CCCN(Cc1ccco1)C(=O)Nc1ccccc1
  18	·
c1ccc(CN2CCC(c3nc4ccccc4[nH]3)CC2)cc1
  5	·
FC(F)(F)Oc1ccccc1-c1nnc(-c2ccccc2Cl)o1
  ·	-4.0
Cc1cc(=O)[nH]c(Nc2cccc(Br)c2)n1
  15	-3.6
Cc1ccc(CNC(=O)CC(C)C)cc1
  -1	-1.3
N#Cc1cc(-c2ccc(Cl)cc2)no1
  7	0.7
NC(=O)C12CCC(CC1)C2
  18	2.5
CCn1c(N)nc2ccccc21
  -40	2.0
COc1ccc(/C=C2\SC(=O)N(CCNC(=O)c3nn(C)c(=O)c4ccccc34)C2=O)cc1
  -8	·
Cc1ccc2cccc(SCc3ccc(Br)cc3)c2n1
  -9	0.1
COC(=O)C(C)N1C(=O)S/C(=C/c2ccc(N3CCCCCC3)o2)C1=O (stereo not drawn)
  -79	15
O=C(c1cc2ccccc2cc1OCc1nnc(-c2cccs2)o1)N1CCOCC1
  -7	·
O=C(NC(=O)c1c(Cl)cccc1Cl)Nc1cc(F)c(Br)cc1F
  ·	2.1
O=C1CCCC2=C1C(c1ccc3c(c1)OCO3)c1c(ccc3ncccc13)N2 (stereo not drawn)
  11	1.0
COc1ccc(CCn2c(SCc3cc(C)on3)nc3sc4c(c3c2=O)CCCC4)cc1OC
  8	·
CC1(C)CC(=O)C2=C(C1)OC(N)=C(C#N)C2c1ccc(-c2cc([N+](=O)[O-])ccc2Cl)o1 (stereo not drawn)
  ·	4.1
Cc1cccc(CN2CCN(CC(=O)N3CCN(c4cccc(C)c4)C(C)C3)C2=O)c1 (stereo not drawn)
  25	·
Cc1ccc(C)c(SC(C(=O)NC(N)=O)C(C)C)c1 (stereo not drawn)
  12	·

These rows are one share of the data; rates above refer to the full screens.
